# Mtb hypoxia inh = PubChem AID 1159583; M. tuberculosis hypoxia-regulated fluorescent reporter, fluorescence; 300,000 compounds, 0.1% hits; fluorescence inhibition, % (no concentration beside the values);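 active means 35 to 45% if threefold the growth effect, above 45% if 1.5-fold the growth effect; inactive means the rest, general growth blockers included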;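 further: wells of about 50 µL received 100 nL stock; 0% = vehicle wells and 100% = reference inhibitor wells; whole bacteria with a GFP reporter of the hypoxia response; strong numbers were not always called active; many hits fall short of the cut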
# RN4220 kill = growth inhibition of S. aureus RN4220, primary screen, OD600; 16 h; 330,000 compounds, 0.33% hits; inhibition, % (no concentration beside the values);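 active means z-score of -3 or lower and OD600 up to 0.18 on both plates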;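 further: plate controls were untreated cells for no effect and reference antibiotic for full effect; stock transfer was 100 nL into about 80 µL; one replicate is shown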
# BJeLR viability = MLPCN primary cell-based screen for lethality selective to Ras in HRASV12 cells | BJeLR (HRASV12) viability, CellTiter-Glo ATP luminescence, 48 h; reference of the scale not given here | inhibition, % (no concentration beside the values) | 300,000 compounds, 0.17% hits;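 active means replicate mean above 50%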;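 further: 50 nL library stock added to about 25 µL; numbers are from one replicate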
# Sa ugtP lethal = growth inhibition of ugtP-null S. aureus, primary screen, RN4220 ugtP deletion, OD600. 16 h; some inactives read as strong as hits. growth inhibition, % (no concentration beside the values). 330,000 compounds, 0.54% hits;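 active means z-score under -3 and OD600 up to 0.15 on both plates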;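 further: plate controls were untreated wells for no effect and antibiotic for full effect; wells of about 80 µL received 100 nL stock; the first replicate is given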
# PrP UTR inh = inhibition of PrP 5' UTR reporter expression | AID 488862, 2010 | inhibition, % (concentration not given with the values) | 340,000 compounds, 0.35% hits | cell-based PrP 5' UTR mRNA reporter, plate reader;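 active means every replicate at 50% or more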;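 further: 0 = median of the neutral control wells; tested in H4 reporter cells; numbers are from one replicate; inactives centre near -14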
# Autofluor counter = counter-screen for toxin protease inhibitors: compound fluorescence | compound autofluorescence counterscreen, microsphere flow cytometry; active compounds read high | fluorescence intensity (test concentration not listed) | 360,000 compounds, 3.1% hits | AID 624483;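 active means at least 3 SD above the mean of all compounds, about 16000 in these data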;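 further: 100 nL of 1 mM stock went into each well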
# Mtb hypoxia inh growth = second read-out of Mtb hypoxia inh, no call of its own (marks repeat the call); growth inhibition, %; measured here: M. tuberculosis growth (absorbance);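 0% = vehicle and 100% = reference antibiotic; read after six days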
# An asterisk follows results filed as active; . = no result given.
molecule,Mtb hypoxia inh,Mtb hypoxia inh growth,RN4220 kill,BJeLR viability,Sa ugtP lethal,PrP UTR inh,Autofluor counter
CCN(CC)CCCN(C(=O)c1cccc(C)c1)c1nc(-c2ccc(OC)cc2)cs1,8,11,2.9,-7,1,-9,4209
CCN1C(=O)[C@H]2[C@H]3CN=C(SCc4ccc(C(=O)OC)cc4)N3[C@@](C)(C(=O)OC)[C@H]2C1=O,3,10,2.3,.,3,-19,3497
CCN1CCc2c(sc(NC(=O)c3ccc(S(=O)(=O)N(CC)c4ccccc4)cc3)c2C(N)=O)C1,.,.,.,1,.,-32,6982
CCOC(=O)Cc1csc(CC(N)=O)n1,1,5,0.4,-3,3,-1,6505
C=CCOc1c(Br)cc(C=Nn2c(CC)n[nH]c2=S)cc1Br,9,6,1.6,.,8,.,.
Nc1ccc(CCC(=O)N2CCCC2)cc1,0,13,-1.5,3,0,4,3873
N#Cc1c(N2CCN(c3ccc(F)cc3)CC2)nc(N)c2c(N)nc3c(c12)CC(=O)N3C1CC1,-6,9,4.4,.,12,5,3787
CCOC(CNc1cc(C)nc2c(-c3ccccc3OC)c(C)nn12)OCC,-10,13,-0.5,1,7,-8,3855
COc1ccc(-n2cnnc2SCC(=O)Nc2ccc(N3CCOCC3)cc2)cc1,7,6,1.7,-4,6,-15,3281
Cc1ccc(Nc2cnn(C34CC5CC(CC(CC(=O)O)(C5)C3)C4)c(=O)c2Cl)cc1,0,-3,1.1,-2,-1,-15,8250
Cc1ccc(S(=O)(=O)c2nc(-c3ccccc3Cl)oc2NCCCN2CCOCC2)cc1,4,2,1.5,-6,5,-15,4449
CCOC(=O)CSc1nnc(CNC(=O)c2ccc(OC)cc2OC)n1C,4,1,2.7,-1,4,-2,16030
Cc1ccc(C=NNC(=O)CSc2nnc(-c3ccccc3)n2-c2ccc(Cl)cc2)o1,6,1,7.2,.,8,.,.
COc1ccc(C)cc1S(=O)(=O)N(CC(=O)N1CCOCC1)Cc1ccccc1,-4,2,-2.8,4,-10,5,10848
CCOC(=O)C1(Cc2cccc(F)c2)CCN(CC(O)CO)CC1 (configuration not stated),15,-5,5.2,7,6,3,4078
COc1ccc(-c2nnc(SCC#CCO)o2)cc1OC,.,.,-2.0,-14,-6,-5,3971
CCOC(CNC(=O)C1CCN(S(=O)(=O)c2ccc3nc4c(c(C(=O)O)c3c2)CC(C)CC4)CC1)OCC (configuration not stated),11,5,4.2,6,9,-5,5240
O=c1c2sc3nc(N4CCOCC4)c4c(c3c2nnn1Cc1ccccc1)CCCC4,-1,1,-6.1,4,-6,-8,2319
O=C(c1ccc(CS(=O)(=O)c2ccccc2)o1)N1CCN(c2ccccc2)CC1,5,-1,3.1,8,2,-15,5531
CCOC(=O)/C=c1\s/c(=C\c2ccc(C)cc2)c(=O)n1CC(=O)NCc1ccco1,.,.,.,-11,.,2,2401
COc1ccc(Cc2nnc(SCC(=O)Nc3cc(Cl)ccc3OC)[nH]c2=O)cc1,-5,2,10,9,0,-12,5318
Cc1c(CC(=O)NCC(=O)O)c(=O)oc2cc3oc4c(c3cc12)CCCC4,-4,-6,-3.0,-4,7,-3,3605
Cc1ccc(N2CCN(CCCN3C(=O)C4CCCN4C3=O)CC2)cc1 (configuration not stated),-2,14,1.7,11,0,-13,2256
Cc1ccc(C(=O)NC(=S)Nc2ccc(S(=O)(=O)N(C)c3ccccc3)cc2)cc1,.,.,4.0,9,2,-9,4841
CCOc1ccc(N(C(=O)c2cnccn2)C(C(=O)NC2CCCCC2)c2ccc(O)cc2)cc1 (configuration not stated),5,6,3.1,2,-1,-13,4686

# Entries shown so far that have a thiophene ring, fused or not:
molecule,Mtb hypoxia inh,Mtb hypoxia inh growth,RN4220 kill,BJeLR viability,Sa ugtP lethal,PrP UTR inh,Autofluor counter
CCN1CCc2c(sc(NC(=O)c3ccc(S(=O)(=O)N(CC)c4ccccc4)cc3)c2C(N)=O)C1,.,.,.,1,.,-32,6982
O=c1c2sc3nc(N4CCOCC4)c4c(c3c2nnn1Cc1ccccc1)CCCC4,-1,1,-6.1,4,-6,-8,2319

# Additional structures:
molecule,Mtb hypoxia inh,Mtb hypoxia inh growth,RN4220 kill,BJeLR viability,Sa ugtP lethal,PrP UTR inh,Autofluor counter
O=C(NCc1ccccn1)c1c(O)c2cccc3c2n(c1=O)CC3,-3,2,3.5,0,0,-10,3282
CCCn1c(SCC(=O)Nc2cccc(F)c2)nc(O)cc1=O,9,10,-0.8,.,6,-31,3398
CCOC(=O)C1CCN(C(=O)C2CCN(S(=O)(=O)c3ccc4ccccc4c3)CC2)CC1,5,11,-0.8,-2,-1,-7,5534
c1cnc(-c2nnc3n2CCCCC3)cn1,-3,11,3.6,-14,0,-9,12829
Cc1cc(Cl)c2oc(C(=O)N(C)C3CCOC3)c(C)c2c1 (configuration not stated),3,8,2.8,6,-3,-55,4153
COc1cccc(NCc2ccc([N+](=O)[O-])s2)c1,4,-1,7.8,-4,-3,-20,2061
O=C1CCCc2oc3ccc(NS(=O)(=O)c4cccc5cccnc45)cc3c21,3,6,3.4,-2,5,-11,3438
COc1ccc(N2CCN(S(=O)(=O)c3ccc(-c4cnc(C5CC5)o4)cc3)CC2)cc1,-7,-8,2.4,-3,0,-11,5585
O=C1Nc2c(Br)cc(Br)c3cccc1c23,-1,-4,11,6,-3,-19,3923
OC(COc1ccc(Br)cc1)CN1CCCC1 (configuration not stated),11,-4,2.1,-6,6,-25,5341
COc1cc(/C=C(\C#N)C(N)=O)ccc1OCc1c(C)no[n+]1[O-],4,10,3.4,-1,12,-17,4383
COc1ccccc1C(=O)NCCC(=O)N1CCCC(C)C1 (configuration not stated),-1,6,0.1,-3,-2,-10,5679
O=c1cc(C(F)(F)F)nc(SCc2cccc3ccccc23)[nH]1,11,1,74,-7,75,-3,5881
O=C(O)COCc1nc2ccccc2s1,1,-1,3.8,2,6,-15,4252
Cc1nc2c(C(=O)NCCC(C)C)c[nH]n2c(=O)c1Cc1ccccc1F,5,-1,-8.9,3,-13,3,10521
O=C(c1cc(-c2ccccc2)n[nH]1)N1CCN(S(=O)(=O)c2ccccc2)CC1,.,.,-0.7,-11,-13,-32,5337
Cc1ccc(SCCN2CCN(CCc3ccccc3)CCC2=O)cc1,12,7,10,2,3,-17,3086
c1ccc(Cc2nn[nH]n2)cc1,7,0,10,5,2,-33,2914
CCc1c(C(=O)Nc2cc(C)cc(C)c2)[nH]c(C)c1C(C)=O,3,8,1.2,-11,-18,-12,4274
CC1(C)CCC(=O)N2CCC3CC(OC(=O)Nc4ccc5c(c4)OCO5)CC1C32 (configuration not stated),4,6,4.5,.,-19,.,.
NC(=O)COc1ccc(/C=N\NC(=O)CC(=O)NCCc2ccccc2)cc1,.,.,.,2,.,-12,2771
O=C(O)CNC(=O)C(c1ccccc1)c1ccccc1,-2,-10,-1.7,8,2,-21,4776
COc1ccc(/C=N/NC(=O)CCSc2nc3ccccc3s2)cc1OC,.,.,.,-1,.,10,2020
O=C(CCN1CCOCC1)Nc1cc(C(=O)Nc2ccccc2F)ccc1N1CC2CC(C1)c1cccc(=O)n1C2 (configuration not stated),2,6,-0.2,21,-3,-12,5858
NC(=O)C1(N2CCCCC2)CCN(C2CC(=O)N(Cc3ccc(N4CCCC4=O)cc3)C2=O)CC1 (configuration not stated),4,-7,-0.4,3,7,-18,10479
COc1ccc(CNC(=O)c2ccc3nccnc3c2)cc1,9,14,3.8,-2,2,-6,12458
Cc1ccc(S(=O)(=O)N(C)c2ccc(OC(=O)c3cccs3)cc2)cc1C,6,5,11,.,8,-23,8273
Cc1cccc(N(CC(=O)N/N=C/c2cc([N+](=O)[O-])ccc2Cl)S(C)(=O)=O)c1C,.,.,.,-6,.,1,2163
COc1ccc(/C(C)=N/NC(=O)CNC(=O)CCc2ccccc2)c(OC)c1,.,.,.,-17,.,-14,5412
CC1CN(CCc2ccccc2)c2nc3c(c(=O)n(C)c(=O)n3C)n2C1 (configuration not stated),-1,10,-0.9,-7,-4,-19,4459
c1cnc(N2CCSCC2)nc1,4,6,4.7,-11,5,-6,12732
O=S(=O)(NCC1CCCO1)c1cnc(Cl)c(Cl)c1 (configuration not stated),11,5,5.2,3,3,-11,2146
N=c1ncn(CC(O)CN2CCOCC2)c2nc(N3CCOCC3)[nH]c12 (configuration not stated),-1,6,-0.2,1,5,-80,22533*
COc1ccc([N+](=O)[O-])cc1NC(=O)CSc1ccc2ccccc2c1,13,4,-2.4,-1,-19,-19,2460
CC1CCCN1CCC(C(N)=O)(c1ccccc1)c1ccccc1 (configuration not stated),1,2,0.6,.,-1,-7,4181
Cn1nc(C(=O)OCC(=O)Nc2cccc(S(=O)(=O)N3CCCC3)c2)c2ccccc2c1=O,12,8,6.6,6,8,-24,4392
CCOC(=O)c1cn(CC)c2cc(N3CCN(C)CC3)c(F)cc2c1=O,8,8,3.9,-10,9,-9,3085
CCC(Oc1ccc2ccccc2c1)C(=O)O (configuration not stated),.,.,0.6,.,-1,-10,2846
O=C(O)c1cccc(OCCN2CCCC2=O)c1,12,8,1.9,-16,6,-17,3463
CN(C1CCCCC1)S(=O)(=O)c1ccccc1,12,10,8.0,-13,5,-37,11064
CC(=NNC(=O)c1nnn(-c2nonc2N)c1-c1ccccc1)c1ccco1,2,0,1.0,.,1,.,.
O=C1CC2c3ccccc3C1C1C(=O)N(CCO)C(=O)C21 (configuration not stated),0,6,-1.8,.,14,-14,4240
CC1C(=O)N2CCCc3cc(NS(=O)(=O)c4ccc([N+](=O)[O-])cc4)cc1c32 (configuration not stated),-1,-5,13,0,3,-23,4609
CCN(C(=O)Nc1cccc(Cl)c1)c1ccccc1,15,11,2.8,8,-2,-13,3983
COc1ccc(C(=O)C2CCCN(C(=O)C3CCOCC3)C2)cc1OC (configuration not stated),-4,9,0.2,-5,-4,0,5327
CCOc1ccc(OCCSc2nc(N)cc(=O)[nH]2)cc1,8,-1,26,9,3,-31,4929
CCc1nc(SCC(=O)c2ccc(Cl)s2)c2oc3ccccc3c2n1,15,14,24,-11,0,-16,16776*
CCOc1ccccc1CN1C2CCC1CC(c1ccc(C)cc1)C2 (configuration not stated),-15,-8,-3.6,2,-8,-24,4034
COc1ccc(-c2[nH]c(-c3ccc(F)cc3)nc2SCC(=O)NCc2ccco2)cc1OC,3,7,-6.9,-18,-6,-21,6320
Cc1ccc2c(c1)C(=O)C(=O)N2CC1COc2ccccc2O1 (configuration not stated),-6,3,9.4,3,-2,-22,3751

# Not a retest: entries from further up.
molecule,Mtb hypoxia inh,Mtb hypoxia inh growth,RN4220 kill,BJeLR viability,Sa ugtP lethal,PrP UTR inh,Autofluor counter
COc1ccc(-c2[nH]c(-c3ccc(F)cc3)nc2SCC(=O)NCc2ccco2)cc1OC,3,7,-6.9,-18,-6,-21,6320
Cc1ccc2c(c1)C(=O)C(=O)N2CC1COc2ccccc2O1 (configuration not stated),-6,3,9.4,3,-2,-22,3751

# Remaining list, next part
molecule,Mtb hypoxia inh,Mtb hypoxia inh growth,RN4220 kill,BJeLR viability,Sa ugtP lethal,PrP UTR inh,Autofluor counter
c1cncc(-c2nnc3sc(-c4ccco4)nn23)c1,-18,-5,3.9,-2,-1,-4,10312
Cc1cccc(Nc2nnc(SCC(=O)Nc3ccccc3[N+](=O)[O-])s2)c1C,17,11,36,16,25,-1,2155
C=CCOC(=O)C(=O)/C=C/c1coc2ccccc2c1=O,.,.,.,11,.,-17,4305
O=C(Nc1c(S(=O)(=O)c2ccccc2)csc1Br)c1ccccc1Cl,-3,10,6.4,0,17,-16,5953
CCOC(=S)N/C(=N\S(=O)(=O)c1ccc(C)cc1)c1ccccc1,.,.,.,6,.,-11,10718
O=C(Cn1cc2c(n1)CCCCC2)N1CCCCC1,.,.,-0.9,-1,-6,-25,5550
CC[N+]1(C)C2CCC1CC(OC(=O)C1CCC(C(=O)OC3CC4CCC(C3)[N+]4(C)CC)(c3ccccc3)c3ccccc31)C2 (configuration not stated),3,0,6.9,.,9,.,.
CC1(C)CC(=O)C=C(NCCN2CCN(C(=S)Nc3ccc(F)cc3)CC2)C1,7,8,1.1,5,2,-34,3751
CCCc1cc(=O)[nH]c(SCC(=O)Nc2cc(S(=O)(=O)N3CCOCC3)ccc2N(CC)CC)n1,14,7,12,.,2,-20,4077

# Source: PubChem BioAssay
